Assay outcomes (PubChem BioAssay)
HPGD inh: qHTS Assay for Inhibitors of HPGD (15-Hydroxyprostaglandin Dehydrogenase) | 15-hydroxyprostaglandin dehydrogenase [NAD(+)] (Homo sapiens), P15428 | purified HPGD, NADH fluorescence kinetic, PGE2 substrate | Potency, µM, inactives show at the top dose activity change, negative = inhibition, usual class: inhibitors | 4.3% of 150,000 active | AID 894, 2007; active = well fitted inhibition curve with a large enough effect (not every such curve was filed as active); inconclusive = small, poorly fitted or top-dose-only effect, or another doubt; inactive = no such curve, though single readings can be large or run the other way;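 further: top concentration of the series not given in the record; plate controls included wells without enzyme; inactives centre near -10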
Target sequence (P15428 whole entry, looked up): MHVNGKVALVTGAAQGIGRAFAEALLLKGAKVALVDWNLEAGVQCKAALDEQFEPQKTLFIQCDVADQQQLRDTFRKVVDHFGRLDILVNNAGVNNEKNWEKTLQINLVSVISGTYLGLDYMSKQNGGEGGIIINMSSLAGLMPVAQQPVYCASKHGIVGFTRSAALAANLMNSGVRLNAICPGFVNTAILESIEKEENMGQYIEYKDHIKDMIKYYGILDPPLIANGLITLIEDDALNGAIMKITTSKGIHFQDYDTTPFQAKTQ
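NADH formation kinetics: reaction with 30 uM PGE2 and 1 mM NAD+ (final), 20 nM enzyme, Tris-HCl pH 8 with Tween 20, after 15 min compound preincubation at room temperature. Fluorescence change, last versus first of five reads.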
* marks the source's active call; other numbers are inactive results; u = inconclusive. On the % scale 0 is the no-effect control and ±100 the full control effect; potency means the concentration at half of the fitted maximal effect.

No.	compound	HPGD inh
1	CCCCCCCCCCCC(=O)NC(C(=O)OCC)C(O)c1cccc([N+](=O)[O-])c1 (stereo unspecified)	-19%
2	COc1cc(N2C(=O)NC3CC2(C)Oc2ccccc23)cc(OC)c1OC (stereo unspecified)	-1%
3	O=C(N1CCOCC1)n1nnc2ccccc21	-5%
4	CCN1CCN(c2cc3c(cc2F)c(=O)c(C(=O)O)cn3C2CC2)CC1	u
5	C=CCN(c1ccccc1)S(=O)(=O)c1cccc(C(=O)Oc2ccc3c(C)cc(=O)oc3c2)c1	u
6	Cc1cc(NC(=O)CSc2nnc(-c3ccco3)o2)no1	-6%
7	COc1ccc(C2=CC(c3ccc(F)cc3)n3nnnc3N2)cc1 (stereo unspecified)	-14%
8	CCCCN1CNC(=S)N(Cc2ccccc2)C1	-16%
9	Cc1ccc(C(=O)NCCc2ccncc2)cc1	-12%
10	Cc1ccc2[nH]cc(C(=O)CN3CCOCC3)c2c1	-5%
11	CCOC(=O)c1nn(-c2ccc(Cl)cc2)c2nc(-c3ccc(C)cc3)c(C#N)c(=O)n12	u
12	Cn1nc(C(F)(F)F)c(C#N)c1N1CCN(c2cccc(C(F)(F)F)c2)CC1	-9%
13	O=C(CO/N=C/c1cccc([N+](=O)[O-])c1)Nc1ccc2ccccc2c1	-18%
14	NCCC1CCCC(CCN)N1 (stereo unspecified)	4%
15	O=[N+]([O-])c1cccc(S(=O)(=O)Nc2nc3ccccc3nc2Nc2cccc(S(=O)(=O)N3CCCCC3)c2)c1	-13%
16	CCNc1ncc2ncc(=O)n(C[C@H]3CCCO3)c2n1	u
17	CCCC(=O)NCCCc1nc2ccccc2n1C	-4%
18	CCOC(=O)N1CCN(CC(=O)c2ccc3c(c2)CCN3C(C)=O)CC1	-3%
19	CCOc1ccccc1N1CCN(c2nc3ccccc3nc2C(C#N)C(=O)OC(C)C)CC1 (stereo unspecified)	-3%
20	O=C(CN1CCN(S(=O)(=O)c2ccc(Cl)cc2)CC1)Nc1ccc2c(c1)CCC2	-5%
21	O=C(Cc1coc2ccc3ccccc3c12)NCc1ccccc1	-22%
22	CCOC(=O)c1ccc(NC(=O)CN2CCN(c3ccccc3)CC2)cc1	0%
23	C=CCn1c(SCC(=O)Nc2cccnc2Cl)nnc1-c1ccccc1F	-11%
24	COc1cccc(CNC(=O)CCS(=O)(=O)c2cccs2)c1	-3%
25	O=S(=O)(c1cccc(NC(=S)N2CCN(c3ccc(F)cc3)CC2)c1)C(F)F	-4%
26	O=C(Nc1ccccc1)N1CCc2scc[n+]2-c2ccccc21	-8%
27	CC(C)C(=O)c1cc2c(cc1NC(=O)Nc1cccc3ccccc13)OCCO2	u
28	O=C(Cn1cnc2sc(-c3ccccc3)cc2c1=O)NCCc1ccccc1	u
29	Cc1ccc(S(=O)(=O)C2(C(=O)N(C)C3CCCCC3)CC2)cc1	-2%
30	O=C(Nc1ccccc1N1CCN(C(=O)c2ccccc2)CC1)c1ccc2c(c1)OCO2	-1%

Exported as labelled records: part of the list above.
28	O=C(Cn1cnc2sc(-c3ccccc3)cc2c1=O)NCCc1ccccc1
- HPGD inh: u
12	Cn1nc(C(F)(F)F)c(C#N)c1N1CCN(c2cccc(C(F)(F)F)c2)CC1
- HPGD inh: -9%
23	C=CCn1c(SCC(=O)Nc2cccnc2Cl)nnc1-c1ccccc1F
- HPGD inh: -11%
8	CCCCN1CNC(=S)N(Cc2ccccc2)C1
- HPGD inh: -16%

The list continues.
No.	compound	HPGD inh
31	COc1cc(/C=N/Nc2ccccc2)ccc1OC(=O)c1cccs1	-26%
32	O=C(CN1CCC(NC(=O)Nc2ccccc2-c2ccccc2)CC1)NCc1ccco1	-3%
33	COc1ccc(NC(=S)N/N=C2\CC(C)(C)Oc3ccc(OC)cc32)cc1	-19%
34	CCOC(=O)c1[nH]c(C)c(C(=O)NC2CCN(C(=O)OCC)CC2)c1C	-16%
35	O=C(c1cccs1)N(Cc1ccco1)C1CCS(=O)(=O)C1 (stereo unspecified)	-9%
36	COc1cc(-c2nnc(-c3ccccc3)o2)cc(OC)c1OC	u
37	C=CCC(C)(O)c1ccsc1 (stereo unspecified)	-3%
38	O=C(Nc1ccccc1N1CCCCC1)c1ccc(-c2cccc(Cl)c2)o1	u
39	Cc1cc(C)c(OCCN2C(=O)NC(C)(C)C2=O)c(Cl)c1	-16%
40	O=C(CCn1c(=O)sc2ccccc21)Nc1nc2ccccc2s1	-6%
41	O=C(Cn1cccc1C(=O)c1ccccc1)NCc1ccc2c(c1)OCO2	-21%
42	CCOC(=O)c1cccnc1NC(=O)c1ccccc1	1%
43	O=C(O)C[C@H](S)C(=O)O	-2%
44	CCC(=O)Oc1c(S(=O)(=O)c2ccc(C)cc2)c(C)nn1C(C)(C)C	-5%
45	C=CCNC1=C2C[C@@H](C)C[C@H](OC)[C@H](O)[C@@H](C)/C=C(\C)[C@H](OC(N)=O)[C@@H](OC)/C=C/C=C(\C)C(=O)NC(=CC1=O)C2=O	-9%
46	O=C(NC1CCCCCCC1)C1CCN(S(=O)(=O)N2CCC3(CC2)OCCO3)CC1	-2%
47	CC(=O)CC(=O)NC1C2CC3CC(C2)CC1C3 (stereo unspecified)	0%
48	CC(NC(=O)/C=C/c1ccco1)c1nc2ccccc2n1Cc1ccccc1F (stereo unspecified)	-12%
49	Cn1c(=O)c2c(nc(NCc3ccco3)n2C)n(C)c1=O	-6%
50	CCNC(=O)c1ccc(NS(=O)(=O)c2ccccc2)cc1	-10%
51	COc1cc2[nH]c(=O)n(Cc3ccc(C(=O)NCCCN4CCC(C)CC4)cc3)c(=O)c2cc1OC	-19%
52	CC(C)NC(=O)NC(=O)COC(=O)C1CCCN1C(=O)c1cccs1 (stereo unspecified)	3%
53	CCCSc1n[nH]c(NC(C)=O)n1	-11%
54	N#CC1=C(Nc2ccccc2)SC=C(c2ccccc2)N=C1N1CCOCC1	-18%
55	Cn1c(SCC(=O)c2ccc(-c3ccccc3)cc2)nnc1-c1ccco1	-22%
56	O=C(Cn1c(=O)n(-c2ccccc2)c(=O)c2oc3ccccc3c21)Nc1ccccc1	-13%
57	COC(=O)C1=C(C(=O)OC)[C@@H]2N(C)c3ccccc3[C@@]23C[C@@H](C(=O)OC)N(S(=O)(=O)c2ccc(OC)cc2)C3=N1	-1%
58	O=C(CCN1CCN(c2ccc(Cl)cc2)CC1)Nc1nccs1	-3%
59	C=CCN1C(=O)S/C(=C\c2ccc3c(c2)n(C)c(=O)n3C)C1=O	14%
60	COc1ccc(/C=N/NC(=O)c2ccc(Cl)cc2Cl)cc1COC(C)=O	-16%
61	COC(=O)c1cccc(NC(=O)c2cc(OC)c(OC)c(OC)c2Br)c1	u
62	COC1CCCCC1Nc1cc(C)ccc1C (stereo unspecified)	6%
63	O=C(NCCNCCO)c1c(O)c2cccc3c2n(c1=O)CCC3	-9%
64	COc1ccc(N(CC(=O)NCC2CCCO2)S(=O)(=O)c2c(C)noc2C)cc1 (stereo unspecified)	-5%
65	COc1cc(CNc2cc(C)ccc2C)cc(OC)c1OC	-9%
66	C=CCCc1ccc(C#N)c(SCc2c(C(=O)OCC)c3cc(OC(C)=O)c(Br)cc3n2C)n1	-14%
67	CC1(C)OC(=O)N2CCc3ccccc3C21C (stereo unspecified)	3%
68	Cc1cccc(NC(=S)Nc2cccc(C(F)(F)F)c2)n1	-15%
69	O=C(Nc1ncn[nH]1)c1c(Cl)ccc(Cl)c1Cl	-15%
70	CCOc1ccc(NC(=O)c2ccc(S(=O)(=O)N(C)C)cc2)cc1	-12%
71	Cc1cccc(C)c1N(CC(=O)N1CCN(C)CC1)S(C)(=O)=O	-5%
72	Oc1ccc(Oc2ncc(Cl)cc2Cl)cc1	-2%
73	COc1ccc(C2C=C(c3ccccc3)Nc3ncnn32)cc1 (stereo unspecified)	u
74	COC(=O)c1ccccc1NC(=O)c1cc2nc(C3CC3)cc(C(F)(F)F)n2n1	u
75	CN1C(=O)c2cccc3c(Cl)ccc(c23)C1=O	u
76	O=C(c1ccccc1)c1ccc(N2CCCC2)cc1	14µM*
77	Cc1ccccc1-n1nnnc1SCc1ncc(-c2ccccc2)o1	-18%
78	CCCOc1ccc(Cn2c(=O)oc3ccc(C)cc32)cc1OC	3%
79	Cn1c(=O)c2c(nc(CN3CCc4ccccc4C3)n2Cc2ccccc2F)n(C)c1=O	-21%
80	CCOC(=O)CC(CC(C)=O)C(=O)OCC (stereo unspecified)	-11%
81	O=C(Nc1ccccc1)N(CCCN1CCOCC1)Cc1cccs1	-2%
82	Cc1ccccc1NC(=S)NCc1ccco1	-14%
83	COc1cc2[nH]c(=O)n(Cc3ccc(C(=O)NCC4CCCO4)cc3)c(=O)c2cc1OC (stereo unspecified)	u
84	C=CCn1c(Cc2csc(N)n2)nnc1SCC(=O)Nc1ccccc1C(F)(F)F	-5%
85	CC1C=CCC2C(=O)N(c3ccc(Cl)cc3O)C(=O)C12 (stereo unspecified)	-3%
86	Cn1c(Cn2c(=O)sc3ccccc32)nnc1SCC(=O)Nc1ccccc1F	0%
87	CCOC(=O)c1cc(C#N)c(Oc2ccccc2)nc1-c1ccccc1	-13%
88	C=CCN1C(=O)S/C(=C\c2ccc(N3CCOCC3)cc2C)C1=O	u
89	O=C(c1ccccc1F)N1CCN(c2ncccn2)CC1	-14%
90	N#CC(c1nc2ccccc2nc1N1CCCC1)S(=O)(=O)c1ccccc1 (stereo unspecified)	u

Remaining list, next part
No.	compound	HPGD inh
91	Cc1ccc(-c2ccc(/C=N/NC(=S)Nc3ccccc3)o2)cc1[N+](=O)[O-]	-16%
92	CN1CCN(C(c2cccc(C(F)(F)F)c2)c2nnnn2C(C)(C)C)CC1 (stereo unspecified)	-12%
93	COc1ccc(C(=O)/C=C/Nc2cc(C)on2)cc1	u
94	CCCCCn1c(=O)[nH]c2cc(C(=O)N3CCN(CC)CC3)ccc2c1=O	-12%
95	Cc1cc(Oc2ccccc2)nc(N)n1	1%
96	CCOC(=O)COc1cccc2c(=O)n(CC(=O)N3CCCc4ccccc43)ccc12	-7%
97	COc1ccc2[nH]c3ccc(OC)cc3c2c1	-6%
98	COc1ccc(-c2onc(C)c2-c2ccccc2)c(O)c1	-4%
99	Cc1onc(-c2ccccc2)c1C(=O)N/N=C/c1cccc(O)c1	28µM*
100	CC1CN(C(=O)COC(=O)[C@@H]2CC(O)CN2S(=O)(=O)c2ccc3c(c2)OCCO3)CC(C)O1 (stereo partly specified)	-3%
101	O=C(Nc1ccc(N2CCOCC2)c(F)c1)c1ccncc1	-13%
102	O=C(c1cc2ccccc2oc1=O)N1CCN(C(=O)C2CCCO2)CC1 (stereo unspecified)	-14%
103	O=C1c2ccccc2C(Nc2ccc(S(=O)(=O)N3CCOCC3)cc2)N1Cc1ccco1 (stereo unspecified)	-6%
104	COc1ccc(CCNC(=O)c2cc(-c3cc(C)ccc3O)n[nH]2)cc1OC	4µM*
105	O=c1[nH]c2ccsc2c(=O)n1-c1ccc(F)cc1	-13%
106	CC(C)c1nnc(NC(=O)CCC(=O)NCc2ccco2)s1	-6%
107	CN1CCN(NC(=O)c2cccc(F)c2)CC1	-8%
108	CC(Sc1ncnc2ccccc12)C(=O)Nc1ccc2c(c1)OCCO2 (stereo unspecified)	-12%
109	c1cnc(SCCOc2ccc3c(c2)CCC3)nc1	-22%
110	N#Cc1cccc(-c2nc3cnc(Nc4ccccc4)nc3n(C[C@H]3CCCO3)c2=O)c1	-10%
111	COc1cc(/C=N/NC(=O)c2sc(N)c(C#N)c2C)cc(Br)c1O	-20%
112	COc1cc(S(=O)(=O)NCCc2ccc3c(c2)OCO3)ccc1-n1cnnn1	-13%
113	COc1cccc2cc(C(=O)N3CCc4ccccc4C3)c(=O)oc12	7.9µM*
114	COc1ccc(OC)c(-n2c(SCC(=O)NCc3ccco3)nnc2-c2c[nH]c3ccccc23)c1	-25%
115	O=[N+]([O-])c1ccccc1CNC(Cc1ccccc1)c1ccccc1 (stereo unspecified)	-14%
116	O=C(CSc1ncnc2c1cnn2-c1ccc(Cl)cc1)NCc1ccc2c(c1)OCO2	-16%
117	Cc1cccc(CN2CCN(CC(=O)NCCCN3CCCC3=O)C2=O)c1	0%
118	CCc1ccc2[nH]cc(C(=O)N3CCCCCC3)c(=O)c2c1	-15%
119	CCOC(=O)C(NC(C)=O)(NS(=O)(=O)c1ccccc1)C(F)(F)F (stereo unspecified)	-1%
120	CCOC(=O)CCCNC(=O)COC(=O)CCC(=O)c1ccc(F)cc1	-5%
121	COc1ccc(/C=N/Nc2nncc3ccccc23)cc1	-8%
122	C=CCNC(=O)c1ccccc1S(=O)c1ccccc1C#N (stereo unspecified)	-3%
123	CC(=O)N1CC(=O)N=C1SCC(=O)Nc1nc(-c2ccccc2)c(-c2ccccc2)s1	-11%
124	Cc1c(CCO)sc[n+]1CC(=O)OC12CC3CC(CC(C3)C1)C2	-3%
125	COc1ccccc1N1CCN(C(=O)CCNS(=O)(=O)c2ccc3c(c2)CCC(=O)N3)CC1	-6%
126	O=CC(=O)c1ccccc1	-8%
127	Cc1cc(C)c2c(n1)nn1c(NCCCn3ccnc3)cc(C)nc21	u
128	CN(C)CCN1CCc2ccccc21	-11%
129	COc1ccnc(Nc2cccc(C)c2)c1C#N	0%
130	Cc1cc(C(F)(F)F)nn1C(=O)c1cccnc1Cl	-13%
131	COC(=O)c1[nH]c2ccc(Br)cc2c1NC(=O)Oc1ccccc1	-25%

These rows are one share of the data; count on the stated rates, not on these rows.
